# Assay outcomes as filed in PubChem BioAssay.
# Biofilm kill mix = mixtures killing C. albicans biofilm. C. albicans biofilm persisters + clotrimazole, fluorescence viability; primary screen in compound mixtures of four per well. 120,000 compounds, 0.02% hits. inhibition, % at 7.6 µM;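 active means inhibition above 30.3% in the primary screen of four-compound pools, then above 30% when the compound was retested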;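 further: compounds exposed to preformed 24 h biofilms for 48 h; the number belongs to the whole pool; some results filed as inactive read as strong as hits; inactives centre near 12; 0% = biofilm with clotrimazole alone and 100% = kill control; retested singly at about 60 µM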
#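 System: C. albicans CAF4-2 wild-type biofilms; Medium: RPMI/MOPS medium, pH 7.0; Reagent: Clotrimazole, 50 µg/mL; Times: biofilm formation 24 h, compound exposure 48 h, 37 °C; Detection: 2-h Alamar Blue fluorescence, 535/590 nm excitation/emission; Evaluation: percent inhibition of biofilm viability.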
# * marks the source's active call; other numbers are inactive results. Only part of the results is shown; count on the stated rates, not on these rows.
SMILES,Biofilm kill mix
CCCSC1=C(C#N)C(c2cccs2)C(C(=O)Nc2ccccc2)=C(C)N1 (configuration not stated),16
CNC(=S)N(Cc1ccc(OC)cc1)C1CC(=O)N(c2ccc(OC)cc2)C1=O (configuration not stated),13
COC(=O)c1cc(C(=O)OC)cc(N2C(=O)CC(NNC(=O)c3ccc(C)cc3)C2=O)c1 (configuration not stated),4
CCOC(=O)CNC(=O)CSc1nc2cccnc2n1CC,8
Fc1cccc(NC(=S)NCCN2CCOCC2)c1,7
CNC(=S)NNC(=O)Cc1ccc(OC)cc1,18
CC(=O)NC1C(=O)N=C(SCC(=O)Nc2c(C)cccc2C)NC1=O (configuration not stated),17
CCn1c(=O)c(=O)[nH]c2cc(C(=O)NC3CC3)ccc21,24
Oc1cc2c(cc1C(c1ccc(Cl)c(Cl)c1)N1CCCC1)OCO2 (configuration not stated),7
CC(/C=C/c1ccccc1)=N\Nc1nc2c(c(=O)[nH]c(=O)n2C)n1CCO,15
O=c1c2ccccc2n2c(-c3cccc(Cl)c3)nnc2n1Cc1ccccc1,17
COc1cc(/C(C)=N/NC(=O)c2ccc(CSc3nncn3C)cc2)cc(OC)c1OC,5
Oc1cccc(C2c3[nH]c4ccccc4c3CCN2Cc2ccc3c(c2)CCO3)c1 (configuration not stated),9
COc1ccc(Cl)cc1NC(=S)NCCc1ccc(S(N)(=O)=O)cc1,11
Cc1c(C(=O)OCC(=O)NCC2CCCO2)cccc1[N+](=O)[O-] (configuration not stated),14
Nc1ncnc2c1ncn2[C@@H]1O[C@H](CO)[C@@H](O)[C@H]1O,12
O=C(Nc1nnc(-c2cccs2)o1)c1ccc(S(=O)(=O)N2CCOCC2)cc1,4
CC(=O)C1C(c2ccc(Cl)cc2)c2c(n[nH]c2C)CC1(C)O (configuration not stated),16
Cc1ccc(-n2[nH]c(C)c(/C=N/c3cccc(C)n3)c2=O)cc1,14
O=C(CCSCc1ccccc1)Nc1ccc2c(c1)OCCO2,-2
Cc1ccc(NNC(=O)C(O)(c2cccc(C(F)(F)F)c2)c2cccc(C(F)(F)F)c2)cc1,14
Cn1c(=O)c2c(ncn2CC(=O)OCC(=O)Nc2ccc(Cl)cc2Cl)n(C)c1=O,8
NC(=O)C1=C[C@@H](C2CCCCC2)C[C@@H](OCCCCO)O1,12
CN(C)c1oc(-c2ccc(Cl)cc2)nc1S(=O)(=O)c1ccccc1,9
CN1C(=O)C(CCC(N)=O)NC1=S (configuration not stated),19
CC(=O)Nc1ccc(NC(C)=C(C#N)C#N)cc1,10
O=C(NCc1ccncc1)C(=O)NCC(c1ccco1)N1CCN(c2ccccc2)CC1 (configuration not stated),16
CNC(=O)CS(=O)(=O)CC(=O)Nc1cc(OCCOC)c(Cl)cc1Cl,5
CC(C)(C)c1ccc(S(=O)(=O)Nc2ccc3c(c2)COC3=O)cc1,19
O=C(Cn1nc(CNc2ccc(Cl)cc2)[n+]2c1CCCCC2)c1ccc(Cl)cc1,22
O=C(c1ccc(Cl)c(S(=O)(=O)N2CCCCCC2)c1)N1CCCC1,18
C#CCOCCOCCOCCNc1nc(N2CCN(C(=O)Cn3cc(CCCN=C(N)N)nn3)CC2)nc(N2CCN(C(=O)[C@H]([C@@H](C)CC)n3cc(CCC(=O)O)nn3)CC2)n1,7
CC(=O)Nc1sc2c(c1C(c1ccccn1)N1CCN(C)CC1)CCCC2 (configuration not stated),2
COC(=O)c1sccc1NC(=S)N1CCN(c2ccc(F)cc2)CC1,12
O=[N+]([O-])c1cccc(C(O)C23CN4CN(CN(C4)C2)C3)c1 (configuration not stated),15
CCc1ccc(NC(=O)c2noc(C(C)C)c2[N+](=O)[O-])cc1,20
Oc1oc(-c2ccc(Br)cc2)nc1/C=N/c1ccccn1,31
Fc1cccc(F)c1-n1c(CN2CCOCC2)csc1=S,14
COc1ccc2[nH]c(=O)c(CN(CC3CCCO3)C(=S)Nc3ccc(C)cc3)cc2c1 (configuration not stated),8
CNC(=O)c1cn(-c2ccc(Cl)cc2)c(=O)c2ccccc12,10

# Rewritten tab-delimited: entries from further up.
compound	Biofilm kill mix
O=C(Cn1nc(CNc2ccc(Cl)cc2)[n+]2c1CCCCC2)c1ccc(Cl)cc1	22
O=C(c1ccc(Cl)c(S(=O)(=O)N2CCCCCC2)c1)N1CCCC1	18

# The listing continues:
SMILES,Biofilm kill mix
COc1ccc(OCCSc2nnc(C(C)NC(=O)c3ccccc3F)n2C)cc1 (configuration not stated),29
CCOC(=O)c1ccc(S(=O)(=O)NNC(=O)c2cccc(N(C)C)c2)cc1,11
CCOc1ccc(C2C3=C(CCCC3=O)OC(N)=C2[N+](=O)[O-])cc1 (configuration not stated),9
O=C1NC(=O)/C(=C/c2cccc(O)c2)N1,-2
CSCC(C)N1CCC(CO)(CCc2ccccc2)CC1 (configuration not stated),16
COc1cccc(OC)c1C(=O)Nc1ccc(C)cc1C(=O)c1ccccc1,8
CC(CNS(=O)(=O)c1ccc(Br)cc1)CN(C)C (configuration not stated),23
CCOC(=O)c1c(CSc2ccccc2)oc2cc(Br)c(O)c(CN(C)C)c12,12
O=C(COC(=O)c1cnccn1)Nc1cccc2ccccc12,-2
O=C1NCCCC1C(=O)N/N=C/c1cccc([N+](=O)[O-])c1 (configuration not stated),16
O=C(CCn1c(=S)oc2ccccc21)Nc1cccc(O)c1,12
C/C(=N\Nc1cc(C)nc(-c2ccccc2O)n1)c1ccccc1,7
CC(C)CCc1noc(CN(CC2CCC2)CC2CCCO2)n1 (configuration not stated),16
COc1cc(OC)nc(S(C)(=O)=O)n1,5
O=[N+]([O-])c1ccc(N/N=C/c2sc(N3CCOCC3)nc2-c2ccccc2)c(S(=O)(=O)Nc2ccccc2Cl)c1,4
CC1(C(=O)OCC(=O)Nc2ccccc2)CC1(Cl)Cl (configuration not stated),9
O=C(O)CSc1nc(-c2ccccc2)nc2c1CCCC2,9
CCCCC(=O)Nc1ccc(NC(=O)c2ccc(C)c([N+](=O)[O-])c2)cc1OC,12
Brc1ccc(N=Nc2ccc3ccccc3n2)cc1,4
Cc1nn(-c2ccccc2)c(C)c1/C=C1\C(=O)N(C)C(=S)N1C,14

# 16 of the compounds above, as tab-separated lines:
mol	Biofilm kill mix
CSCC(C)N1CCC(CO)(CCc2ccccc2)CC1 (configuration not stated)	16
COc1cccc(OC)c1C(=O)Nc1ccc(C)cc1C(=O)c1ccccc1	8
CC(CNS(=O)(=O)c1ccc(Br)cc1)CN(C)C (configuration not stated)	23
CCOC(=O)c1c(CSc2ccccc2)oc2cc(Br)c(O)c(CN(C)C)c12	12
O=C(COC(=O)c1cnccn1)Nc1cccc2ccccc12	-2
O=C1NCCCC1C(=O)N/N=C/c1cccc([N+](=O)[O-])c1 (configuration not stated)	16
O=C(CCn1c(=S)oc2ccccc21)Nc1cccc(O)c1	12
C/C(=N\Nc1cc(C)nc(-c2ccccc2O)n1)c1ccccc1	7
CC(C)CCc1noc(CN(CC2CCC2)CC2CCCO2)n1 (configuration not stated)	16
COc1cc(OC)nc(S(C)(=O)=O)n1	5
O=[N+]([O-])c1ccc(N/N=C/c2sc(N3CCOCC3)nc2-c2ccccc2)c(S(=O)(=O)Nc2ccccc2Cl)c1	4
CC1(C(=O)OCC(=O)Nc2ccccc2)CC1(Cl)Cl (configuration not stated)	9
O=C(O)CSc1nc(-c2ccccc2)nc2c1CCCC2	9
CCCCC(=O)Nc1ccc(NC(=O)c2ccc(C)c([N+](=O)[O-])c2)cc1OC	12
Brc1ccc(N=Nc2ccc3ccccc3n2)cc1	4
Cc1nn(-c2ccccc2)c(C)c1/C=C1\C(=O)N(C)C(=S)N1C	14

# New compounds follow:
SMILES,Biofilm kill mix
Cc1cc(C)cc(OCC(=O)OCC(=O)NCc2cccs2)c1,12
Cc1cccc(C(=O)OC2CCN(C)CC2)c1,20
CC(C)Oc1cccc(C(=O)C2CCCN(C(=O)c3noc4c3CCCC4)C2)c1 (configuration not stated),6
CCC(C(=O)OCC(=O)Nc1cccc(OC)c1)c1ccccc1 (configuration not stated),2
COC(C[C@@H](O)[C@@H](C)[C@@H](O)COCc1ccccc1)OC,15
COc1cc(/C=C2/NC(=O)N(Cc3ccccc3F)C2=O)cc(OC)c1OC,-2
Cc1cccc(C(=O)Nc2nnc(-c3cccnc3)o2)c1,-8
O=C(CC(NC(=O)c1ccccc1Cl)c1ccccc1)NC1=NCCS1 (configuration not stated),17
CCOc1cc(/C=C2/COc3ccccc3C2=O)ccc1OCC(=O)N(C)C,-8
COc1cc(C)nn1-c1ccc(Cl)cc1,15
O=C(Cn1cnc2cc([N+](=O)[O-])ccc2c1=O)NC(c1ccccc1)c1ccccc1,18
CN(C)c1ccc(/C=C/C(=O)c2ccccc2)cc1[N+](=O)[O-],-16
CCCCCc1nnc(NC(=O)Cc2ccc([N+](=O)[O-])cc2)s1,12
COc1ccc(N2C(=O)c3cccc4cc(Br)cc(c34)C2=O)cc1,9
O=C(c1ccc(F)cc1)N1CCN(c2ccc([N+](=O)[O-])c(N3CCOCC3)c2)CC1,18
Cc1ccc(-c2cc(C(=O)NCCc3ccccn3)c3ccccc3n2)c(C)c1,13
Cc1c(NC(=O)CSc2nnc(N)s2)c(=O)n(-c2ccccc2)n1C,11
COCCCN=C1NN=C(c2cc(C)n(Cc3ccccc3Cl)c2C)CS1,8
CC(O)Cc1cn(CC(=O)N2CCN(C(=O)OC(C)(C)C)CC2)nn1 (configuration not stated),18
CC1=CC(=O)N(c2ccc(C)cc2)C1c1ccc(Cl)cc1 (configuration not stated),15
COc1ccc(Cl)cc1NC(=O)CSc1nnc(CNC(=O)c2ccco2)o1,24
O=C(CCc1ccc(O)c(O)c1)NNC(=S)NCCc1ccccc1,13
COc1ccc(NC(=O)c2noc(C(C)C)c2[N+](=O)[O-])cc1,11
CCCCNc1nc(=S)n(-c2ccccc2)c(C)c1C(C)=O,11
CCOC(=O)N1CCC(NC(=O)c2cc(C(=O)Nc3ccc(S(=O)(=O)N4CCOCC4)cc3)ccc2CO)CC1,10
COC(=O)C1=C(C(=O)OC)[C@@H]2Nc3ccccc3[C@@]23C[C@@H](C(=O)OC)N=C3N1,24
CN1/C(=C\C=N\NC(=O)c2cccnc2)C(C)(C)c2ccccc21,11
CC1(C)NC(=O)N(CC(=O)Nc2cc(S(=O)(=O)N3CCOCC3)ccc2N2CCOCC2)C1=O,8
COc1cc(SC)ccc1C(=O)NCc1ccccc1,9
COc1ccc(-c2cc(-c3n[nH]c(=S)n3-c3cccc4ccccc34)[nH]n2)cc1,7
CCOC(=O)c1oc2ccc(CNC3CCCCC3)c(Cl)c2c1C,16
Cc1ccc(S(=O)(=O)N(C)C)cc1NC(=O)COC(=O)/C=C/c1ccc2c(c1)OCO2,17
Cc1ccc(O)c(NC(=O)CN(C)S(=O)(=O)c2ccc(Cl)cc2)c1,16
CN1CCN(C(=O)c2ccc(Oc3ccc([N+](=O)[O-])cc3)cc2)CC1,8
Cc1ccc(C)c(S(=O)(=O)NCCCn2ccnc2)c1,14
O=C1C(=O)N(Cc2ccccc2)C(=O)N1CCOc1ccccc1,-11
O=C(CC1C(=O)NCCN1Cc1ccccc1C(F)(F)F)NCCc1ccccn1 (configuration not stated),-5
CC1CCN(C(=O)COc2ncnc3ccccc23)CC1,9
CC(C)(C)NC(=O)COc1ccc(CNCCc2ccccc2)cc1,6
CCCCn1c(-c2sccc2C)n[nH]c1=S,10
CCc1ccc(OCC(=O)N/N=C/c2ccc(OS(=O)(=O)c3ccc(C)cc3)c(OC)c2)cc1,14
CCN(CC)c1ccc(C(=O)N/N=C(\C)c2ccc(O)cc2)cc1,8
COc1cc(NS(=O)(=O)c2ccc(Nc3nc(-c4ccccc4)cs3)cc2)nc(OC)n1,23
C=CCNC(=O)CCc1nnc(C2(c3ccc(Cl)cc3)CCC2)o1,7
COc1cc(/C=C/C(=O)O)cc(S(=O)(=O)NCc2ccc3c(c2)OCO3)c1OC,2
CN(C[C@H](Cc1ccccc1)N(CCN(CCc1ccccc1)N=O)N=O)N=O,20
CCSc1nnc(NC(=O)C2CCN(S(=O)(=O)c3cc(C(F)(F)F)ccc3Cl)CC2)s1,14
Cc1ccc(/C=C/C(=O)NCc2cccs2)cc1,23
COc1ccc(NC(=O)Cn2c(=O)c(C)nc3ccccc32)cc1Cl,15
Cc1ccc2c(c1)C(=O)C(=O)N2CCCOc1ccccc1,16
CC(=O)c1ccc(-c2ccc(C(=O)N3CCCc4ccccc43)o2)cc1,9
Cn1nc(-c2ccc(Cl)cc2)cc1NC(=O)CC(C)(C)CC(=O)O,24
Cc1ccc(S(=O)(=O)N(C)C)cc1NC(=O)c1ccccc1Br,10
Cc1nn(CCc2nn[nH]n2)c2nc(-c3ccc(Br)cc3)cc(C(F)(F)F)c12,10
Cc1ccccc1NCC(=O)N=Nc1c(O)[nH]c2ccc([N+](=O)[O-])cc12,21
OC(CN1CCOCC1)c1ccc(F)cc1 (configuration not stated),23
CC(C)n1cnc2cc(NCc3ccccc3O)ccc21,9
O=C(Nc1ccc(Cl)cc1)N1CCOC12CCC1(CC2)OCCO1,-14
COC(=O)c1ccc(NC(=O)CNCc2ccncc2)cc1,14
CCCOC(=O)Nc1c(C)cccc1C(C)C,8
# Other compounds:
SMILES,Biofilm kill mix
Cc1[nH]n(-c2nc(-c3ccccc3F)cc(=O)[nH]2)c(=O)c1CCO,7
CCc1ccccc1NC(=S)N(Cc1ccc(OC)cc1)CC1CCC(C(=O)O)CC1 (configuration not stated),14
Cc1ccc(S(=O)(=O)NNC(=O)NC23CC4CC(CC(C4)C2)C3)cc1,-12
COCCCN(C(=O)c1cc2c(s1)CCC2)c1c(N)n(Cc2ccccc2)c(=O)[nH]c1=O,9
CCCCC1=CC2=CC(=O)C(C)(OC(=O)CC)C(=O)C2=CN1C1CCCCC1 (configuration not stated),13
